# Compound activity as filed in PubChem BioAssay.
# UCH37 DUB inh – inhibitors of human UCH37 deubiquitinase, primary screen, biochemical, Ub-AMC cleavage, fluorescence; Ubiquitin carboxyl-terminal hydrolase isozyme L5 (Homo sapiens), Q9Y5K5; purified proteasome/UCH37; inhibition, % (concentration not given with the values); 330,000 tested, 0.33% active;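 active = mean of two replicates above 20%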;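 also: 0% = compound-free wells with enzyme and 100% = wells lacking proteasome; stock transfer was 100 nL into about 20 µL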
# Target sequence (Q9Y5K5 whole entry, looked up): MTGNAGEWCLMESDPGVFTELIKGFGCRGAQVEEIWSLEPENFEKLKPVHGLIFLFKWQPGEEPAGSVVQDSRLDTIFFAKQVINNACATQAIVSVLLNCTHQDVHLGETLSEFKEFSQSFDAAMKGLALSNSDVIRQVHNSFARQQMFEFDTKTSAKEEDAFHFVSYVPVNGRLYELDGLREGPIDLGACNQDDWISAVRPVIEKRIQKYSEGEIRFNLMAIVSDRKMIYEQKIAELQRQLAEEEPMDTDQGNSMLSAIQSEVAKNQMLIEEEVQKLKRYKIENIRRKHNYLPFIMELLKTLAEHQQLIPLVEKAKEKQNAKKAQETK
#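 Assay system: Proteasome-bound UCH37. Buffer or medium: pH 7.4 Tris-HCl (50 mM) with ovalbumin, ATP-MgCl2, DTT. Incubation: 30 min preincubation with enzyme, 25 min cleavage at room temperature. Measured by: fluorescence, ex 355 nm, em 460 nm. Read-out basis: percent inhibition. Control set: wells without proteasome as full block, compound-free enzyme plus substrate as uninhibited.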
# E coli growth – E. coli growth inhibition, primary screen, OD600; AID 1053175, 2014; OD600 absorbance (concentration not given with the values); 330,000 tested, 0.21% active; Escherichia coli growth, 23 h; stronger effect = lower value;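 active = OD600 absorbance below the run mean of sample wells minus 3.6 SD, in any replicate, cut at about 0.56 in these data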;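 also: stock transfer was 300 nL into about 60 µL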
# The depositor's hits bear a star. Only part of the results is shown; count on the stated rates, not on these rows.
structure	UCH37 DUB inh	E coli growth
CCOc1cc(C(=O)NN=Cc2cn(-c3ccccc3)nc2-c2cc3ccccc3o2)cc(OCC)c1OCC	-12	0.75
CC(C)(C)c1ccc(C=NNC(=S)NC2CCCCC2)cc1	3.0	0.69
COc1cc(C(=O)NN=Cc2sc(N3CCOCC3)nc2-c2ccccc2)cc(OC)c1OC	-28	0.69
CCCCNC(=O)c1c(N)n(N=Cc2ccccn2)c2nc3ccccc3nc12	5.8	0.71
CCOc1cc(C=Nn2c(C)nc3ccccc3c2=O)ccc1O	7.6	0.68
O=C(NN=C/C(Cl)=C\c1ccccc1)c1cnccn1	10	0.67
Cc1ccccc1C=c1sc(=CC(=O)C(C)(C)C)[nH]c1=O	3.0	0.78
COc1ccc(C=NNC(=O)c2nn(C)cc2Br)cc1CSCc1ccco1	-1.8	0.66
O=C(NN=Cc1ccc(Br)s1)c1ccccn1	7.2	0.63
COc1ccc(C(=O)NN=Cc2ccc(OC)c(OS(=O)(=O)c3ccccc3)c2)cc1	7.3	0.69
Cc1[nH]c2ccccc2c1C=NNC(=S)NC(C)C	7.2	0.65
CSCC[C@H](NC(=O)OC(C)(C)C)C(=O)NN=Cc1ccc2nccnc2c1	5.2	0.72
NC(=S)NN=C1CCSc2ccc3ccccc3c21	2.8	0.68
O=C(O)c1ccc(NN=Cc2cccc3nccnc23)cc1	17	0.7
O=[N+]([O-])c1cccc(C=NNC2=NCCCCC2)c1	0.2	0.7
CC(=NNC1=NCCN1)c1ccc(Cl)cc1	5.4	0.61
COc1cc(C=NNC(=O)c2cccnc2)ccc1OCC(=O)Nc1c(C)cc(C)cc1C	-9.7	0.69
O=C(NN=Cc1c[nH]c2ccc(Br)cc12)c1ccccn1	-4.3	0.62
CCCCCC(=O)NN=C(C)c1ccc(NC(=O)c2ccco2)cc1	-1.7	0.76
ON=Cc1ccc(-c2ccccc2OC(F)(F)F)o1	1.4	0.68
CC12CCC(C(=O)Nc3ccccc3Br)(CC1=NO)C2(C)C (stereo unspecified)	4.6	0.67
N#Cc1ccc(OCC(=O)NN=CC2CC=CCC2)cc1 (stereo unspecified)	3.0	0.68
Cc1nn(-c2ccccc2)c(N2CCCC2)c1C=NNC(=O)C1CC1	4.2	0.72
Cc1cc(C)nc(N/C(=N\S(=O)(=O)Cc2ccccc2)Nc2ccccc2)n1	3.2	0.7
COc1ccc(CNC(=O)CC(C)=NNC(=O)COc2cccc(C)c2)cc1	3.4	0.72

# Overlap with the part before: 5 compounds, followed by the next part.
structure	UCH37 DUB inh	E coli growth
CC12CCC(C(=O)Nc3ccccc3Br)(CC1=NO)C2(C)C (stereo unspecified)	4.6	0.67
N#Cc1ccc(OCC(=O)NN=CC2CC=CCC2)cc1 (stereo unspecified)	3.0	0.68
Cc1nn(-c2ccccc2)c(N2CCCC2)c1C=NNC(=O)C1CC1	4.2	0.72
Cc1cc(C)nc(N/C(=N\S(=O)(=O)Cc2ccccc2)Nc2ccccc2)n1	3.2	0.7
COc1ccc(CNC(=O)CC(C)=NNC(=O)COc2cccc(C)c2)cc1	3.4	0.72
COc1cc(C=NNC(=O)c2sc3nc(C)cc(C)c3c2N)ccc1O	-42	0.72
COc1cccc(C=NNc2nc(Nc3ccccc3)nc(-n3nc(C)cc3C)n2)c1O	2.3	0.73
CCc1ccccc1N(CC(=O)NN=Cc1ccc(OC(=O)OC)c(OC)c1)S(C)(=O)=O	4.7	0.74
CC(=NNC(=O)c1ccoc1C)c1ccc(Br)s1	4.6	0.69
Cc1ccsc1C=NN1CCN(c2ccccn2)CC1	4.9	0.7
O=C(COc1ccc(C=NNS(=O)(=O)c2ccccc2)cc1)Nc1ccccc1	3.4	0.71
Fc1ccc(C=Nn2c(-c3cccs3)n[nH]c2=S)cc1	1.6	0.69
COC(=O)Oc1ccc(C=NNC(=O)CSCc2ccccc2Br)cc1OC	4.3	0.67
COc1ccc(OCC(=O)NN=C(C)c2cccs2)cc1	0.0	0.65
CC(=NNC(=O)c1ccc(Cl)cc1)c1ccc(Br)s1	2.6	0.73
CC(/C=C/c1ccc(N(C)C)cc1)=N/N=C1/NC(=O)CC(C(=O)Nc2ccccc2)S1 (stereo unspecified)	0.3	0.74
N#CCC(=O)NN=Cc1cccc(Oc2ccccc2)c1	-0.4	0.68
COc1ccc(CC(=O)NN=Cc2ccc(-c3cccc(C(=O)O)c3)o2)cc1OC	-1.2	0.68
COc1ccc(C(CC2OC(=O)c3ccccc32)=NNC(N)=O)cc1 (stereo unspecified)	2.3	0.73
CN1CCN(N=Cc2nc(-c3cccc([N+](=O)[O-])c3)n3ccccc23)CC1	13	0.68
C/C(C=NNC(=O)c1n[nH]c2c1CCC2)=C\c1ccccc1	3.7	0.68
Nc1nonc1-n1nnc(C(=O)NN=Cc2ccc(OCc3ccccc3)cc2)c1CNc1ccccc1	-0.5	0.76
COc1ccc(Cc2nnc(NN=Cc3ccc(C)o3)[nH]c2=O)cc1	5.1	0.71
COCCNC(=O)CC(=O)NN=Cc1ccc(C(=O)OC)cc1	3.2	0.72
CCn1cc(C=NNC(=O)c2ccc(F)cc2)cn1	2.7	0.69
Cc1ccc(C(=O)COC(=O)c2cnccn2)cc1C	3.5	0.7
COC(=O)c1ccc(COc2ccc(C=NNc3nc(C)cc(=O)[nH]3)cc2)cc1	-2.2	0.7
COc1ccc(C=NNC(=O)CNC(=O)c2ccc(S(=O)(=O)N3CCOCC3)cc2)cc1OC	6.2	0.7
O=C(NN=Cc1cccs1)c1cc(-c2ccc(Cl)s2)[nH]n1	4.1	0.6
O=C(NN=Cc1ccc(Br)o1)c1cccnc1	10	0.68

# Other results.
structure	UCH37 DUB inh	E coli growth
CC(=NNC(=O)C(=O)Nc1ccc(C)c(Cl)c1)c1ccncc1	0.6	0.65
Cc1ccc(NC(=O)ON=Cc2cccc([N+](=O)[O-])c2)cc1	-2.3	0.64
S=c1[nH]c(-c2ccccc2)cn1N=Cc1ccccc1Br	1.8	0.73
COc1cccc(C(=O)NN=C(C)c2ccc(NC(=O)Cc3ccccc3)cc2)c1OC	-233	0.71
CNC(=O)CON=Cc1ccc(N(C)C)cc1	-3.6	0.7
Cc1ccc(C=NNC(=O)C(=O)NN=Cc2ccc(C)o2)o1	6.8	0.7
CNCCCOc1ccc(C(C)(C)c2ccccc2)cc1	2.4	0.63
COc1ccccc1C=NNC(=O)c1nnn(-c2nonc2N)c1CSC1=NCCS1	5.3	0.63
COc1ccccc1-c1cc(C(=O)NN=Cc2cn(C)nc2C)c2ccccc2n1	6.4	0.67
CC(=NO)c1ccc2c3c([nH]c2c1)CCCC3	-7.9	0.67
COc1ccc(C=NNC(=O)c2cccc(S(=O)(=O)N3CCCC3)c2)cc1O	8.3	0.61
FC(F)(F)c1ccccc1C=Nn1c(COc2ccccc2)n[nH]c1=S	6.1	0.67
Nn1cnnc1NN=Cc1ccc(Cl)cc1Cl	8.6	0.66
COc1cccc(C=Nc2nc3ccccc3n2C)c1O	4.2	0.66
CC(=NNC(=O)COc1ccccc1[N+](=O)[O-])c1cccs1	4.4	0.68
O=C(O)c1ccc(C=NNc2ccc(S(=O)(=O)N3CCOCC3)cc2[N+](=O)[O-])cc1	16	0.72
ON=C(c1ccccn1)C1CC1c1ccccc1 (stereo unspecified)	-2.0	0.67
CC(=NNC(=O)c1cccc(C)c1)c1ccc(N2CCOCC2)cc1	-13	0.69
O=C(NN=C/C=C\c1ccco1)c1cccs1	16	0.64
CCCCc1ccc(S(=O)(=O)NN=C(C)c2ccncc2)cc1	1.4	0.68
CCNC(=S)NN=C(C)c1ccc(N2CCOCC2)cc1	-14	0.69
Nc1c(C(=O)NC2CCCC2)c2nc3ccccc3nc2n1N=Cc1cccnc1	-27	0.7
Cc1cc(C)nc(NN=C2CCCC/C2=C\c2ccccc2)n1	5.6	0.63
O=C(NN=Cc1ccc(-c2cccc([N+](=O)[O-])c2)o1)[C@H]1C[C@@H]1c1ccccc1	8.7	0.71
CCCOC(=S)NC(=NS(=O)(=O)c1ccccc1)c1ccccc1	3.2	0.73

# Next part:
structure	UCH37 DUB inh	E coli growth
S=c1[nH]ncn1N=Cc1cccs1	4.3	0.72
CC(=O)Nc1ccc(C=NNc2nc3ccccc3s2)cc1	0.4	0.66
C[n+]1ccccc1C1CCCCC1=NNC(N)=S (stereo unspecified)	-2.5	0.65
Oc1ccc(C=NNc2nccnc2Cl)c(O)c1	6.1	0.6
CC(=NNC(=O)CNC(=O)c1cccnc1)c1cccc([N+](=O)[O-])c1	3.6	0.67
COc1cc(C=NO)cc(Cl)c1OC	2.6	0.71
CC(=NNc1nc2ccccc2[nH]1)c1cc2ccccc2o1	-11	0.57
CCOC(=O)NN=Cc1cc(C)n(-c2ccccc2)c1C	-2.0	0.68
CCOC(=O)C1=C(N)n2c(sc(=Cc3cccnc3)c2=O)=C(C#N)C1c1cccnc1 (stereo unspecified)	6.0	0.7
Cc1c(C(=O)NN=Cc2ccc(O)c(Br)c2)sc(N)c1C#N	-37	0.73
CCOc1cc(C=NNC(=O)c2ccccc2OCc2ccc(F)cc2)ccc1O	-4.9	0.65
CCC(=NNC(=O)C(N)=O)c1ccccc1O	3.2	0.72
COc1ccc(C=NNc2cc(N(C)C)nc(N(C)C)n2)cc1	2.7	0.66
CCOc1cccc(-c2c(C(=O)NN=C(C)c3ccncc3)nnn2-c2nonc2N)c1	1.8	0.69
COc1ccc(C=NNC(=O)c2cnccn2)c(OC)c1OC	8.2	0.65
Cn1c(=O)n(C)c2cc(C=NNC(=O)c3cc4cc(Br)ccc4o3)ccc21	-339	0.62
CCc1nn2c(=O)cc(N3CCN(c4cc(C)nc5ccccc45)CC3)nc2s1	3.0	0.65
CC(=NNC(=O)c1cccc(F)c1)c1ccc(NC(=O)Cc2ccccc2)cc1	2.5	0.73
O=C(NN=Cc1ccc([N+](=O)[O-])cc1)c1cccnc1	12	0.65
O=C1NCCCC1C(=O)NN=Cc1ccc([N+](=O)[O-])cc1 (stereo unspecified)	7.2	0.66
COc1ccccc1NS(=O)(=O)c1cccc(C(=O)NN=Cc2ccc(NC(C)=O)cc2)c1	-97	0.7
COc1ccccc1C=NNc1cn[nH]c(=O)c1Cl	3.4	0.72
O=C(CNS(=O)(=O)c1ccc(Cl)cc1)NN=Cc1ccco1	2.5	0.65
CCc1ccc(C(C)=NNC(=O)c2ccc(-n3cnnn3)cc2)cc1	5.6	0.66
C=CCN1C(=O)C(Cc2ccc(OCC)cc2)SC1=NN=Cc1cccs1 (stereo unspecified)	4.0	0.82

# The list continues:
structure	UCH37 DUB inh	E coli growth
CC(C)(C)OC(=O)NCCC(=O)NN=Cc1ccc2nccnc2c1	3.7	0.66
Cc1cc(C=NNC(=O)Cn2c3ccccc3c(=O)c3ccccc32)c(C)n1-c1ccc(Cl)cc1	-7.9	0.67
CN(N=Cc1ccncc1)C1=NS(=O)(=O)c2ccccc21	3.2	0.78
NC(=NOC(=O)Cc1cccs1)c1cccc([N+](=O)[O-])c1	1.4	0.68
Cc1ccccc1OCC(=O)NN=Cc1cccc2cccnc12	1.4	0.66
CC1(C)C2CCC(C2)C1CC=NNC(N)=S (stereo unspecified)	6.9	0.72
COc1cc2c(cc1OC)C(C(C#N)=NO)=NC(C)(C)C2	8.4	0.69
NC(Cc1ccc([N+](=O)[O-])cc1)=NOC(=O)c1cccc(Br)c1	1.2	0.65
O=C(CCC(=O)Nc1ccc(Br)cc1)NN=Cc1ccc(F)cc1	1.8	0.67
Cc1ccc(S(=O)(=O)N=C(c2ccccc2)N(C)C)c(C)c1	0.6	0.7
COc1ccc(C=NNC(=O)c2ccc(COCC(F)(F)C(F)F)cc2)cc1	-13	0.66
Oc1ccc(C=NNC(=S)NCC2CCCO2)cc1 (stereo unspecified)	7.8	0.7
CC1CN(C(=NS(=O)(=O)c2ccccc2)c2ccccc2)CC(C)O1 (stereo unspecified)	-0.8	0.69
Cc1ccc([N+](=O)[O-])c(C(=O)NN=Cc2cccnc2)c1	4.3	0.67
COc1ccc(C=NNC(=O)c2sccc2C)cc1Cn1nc(C)cc1C	-0.8	0.73
Cn1c(=NN=Cc2ccccn2)sc2ccccc21	7.0	0.65
CCCCNC(=O)N(O)C1N(N=Cc2cccs2)C(=S)SC1(C)C (stereo unspecified)	9.6	0.69
CC(CC(=O)Nc1ccc2ccccc2c1)=NNC(=O)c1cnccn1	6.1	0.69
Nc1nonc1-n1nnc(C(=O)NN=Cc2ccc(Cl)cc2Cl)c1CN1CCCCC1	6.3	0.71
CC(=O)C(=NNc1ccc(Cl)cc1Cl)Sc1nnc(-c2ccccc2)n1-c1ccccc1	4.7	0.66

# Compound profiles (already shown). Values in the order: UCH37 DUB inh | E coli growth
# CCc1nn2c(=O)cc(N3CCN(c4cc(C)nc5ccccc45)CC3)nc2s1 in the list: 3.0 | 0.65
# CNC(=O)CON=Cc1ccc(N(C)C)cc1 in the list: -3.6 | 0.7
# COc1ccc(Cc2nnc(NN=Cc3ccc(C)o3)[nH]c2=O)cc1 in the list: 5.1 | 0.71
